# Screens (PubChem BioAssay)
# CDC25B CDK2 inh = human CDC25B-CDK2/CyclinA binding inhibition; HTRF CDC25B-CDK2/CyclinA binding, anti-His/anti-Flag; hits give high values; z-score (no concentration beside the values); 94,000 tested, 0.72% active; AID 1259370;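 note: score is relative to mean and SD of negative controls; strong numbers were not always called active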
# HIV TAR-Tat = HIV-1 TAR-Tat binding disruption; HIV-1 TAR RNA, Tat peptide displacement FRET; hits give high values; z-score (no concentration beside the values); 100,000 tested, 0.6% active;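 note: score is relative to mean and SD of negative controls; some compounds called inactive have numbers as strong as hits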
# * hit, by the source's call; . = not tested or not shown.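 Rule for the calls: active = z-score from 3 up in half or more of its runs; inactive = the rest.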
# Below each SMILES – CDC25B CDK2 inh | HIV TAR-Tat
CCOc1nc(C)ccc1-c1noc(-c2cc(OC)cc(OC)c2)n1
  -2.63 | 1.82
COc1cc(-c2nnc3ccc(C(F)(F)F)cn23)ccc1OCc1ccccc1
  4.04 | 1.51
O=C(O)c1cccnc1SC1CC(=O)N(c2ccc(N3CCOCC3)cc2)C1=O (stereo not drawn)
  -0.59 | 0.24
CC(=O)N1c2ccc(S(=O)(=O)N3CCCC3)cc2CC1C(=O)N1CCC(C)CC1 (stereo not drawn)
  . | 0.97
CN(C)c1cc(CC(=O)c2ccccc2)ncn1
  -1.22 | -0.14
CSc1cccc(NC(=O)c2[nH]nc3c2CCc2ccccc2-3)c1
  . | 0.23
CCc1nonc1NC(=O)c1oc2cc(C)ccc2c1C
  -3.13 | -0.74
CCOC(=O)c1sc2ncnc(N(C)c3ccccc3)c2c1C
  -4.08 | 0.95
CCCCc1cc(=O)oc2c(C)c(OCC(=O)OC(C)(C)C)ccc12
  -0.46 | .
Cc1cc(=O)nc2c3ccccc3n(CC(=O)NCCCSC3CCCCC3)n12
  -0.79 | -0.35
CC1=C(C(=O)O)N2C(=O)[C@H](NC(=O)[C@@H](N)c3ccccc3)C2SC1 (stereo partly drawn)
  6.47 | .
Cc1ccc(NC(=O)CSCc2cc(=O)n3nc(C)sc3n2)c(C)c1
  . | -0.73
CCCCOC(=O)c1cccc(NC(=O)/C=C/c2ccc(OC)c(OC)c2)c1
  -0.81 | .
CCOC(=O)C1C(=O)CC(C)(O)C(C(=O)OCC)C1c1ccco1 (stereo not drawn)
  1.14 | .
CCCC(C)n1[nH]c(=O)c2c(C)cc(=O)[nH]c21 (stereo not drawn)
  0.18 | .
COc1ccc(-c2nc3c(c(SC)n2)COC(C)(C)C3)cc1
  -0.95 | 3.11
Cc1ccc(Oc2coc3cc(O)ccc3c2=O)cc1
  -2.21 | 0
O=C(NCCN1CCOCC1)c1cc2n(n1)C(C(F)(F)F)CC(c1ccco1)N2 (stereo not drawn)
  -1.6 | -3.7
CC(C)(C)c1[nH]nc2c1C(c1cccs1)C(C#N)=C(N)O2 (stereo not drawn)
  -3.11 | .
CCc1ccc(-c2cn3c(n2)sc2cc(C(=O)N4CCCC4)ccc23)cc1
  . | 1.34

# Quoted at random: two compounds from above
# Below each SMILES – CDC25B CDK2 inh | HIV TAR-Tat
CCOc1nc(C)ccc1-c1noc(-c2cc(OC)cc(OC)c2)n1
  -2.63 | 1.82
COc1ccc(-c2nc3c(c(SC)n2)COC(C)(C)C3)cc1
  -0.95 | 3.11

# (listing goes on)
# Below each SMILES – CDC25B CDK2 inh | HIV TAR-Tat
CNC(=O)c1nnsc1NC(=O)N1CCCCC1
  . | 0.83
CCCN1C(=O)CCS(=O)(=O)c2ccccc21
  0.31 | -0.65
Nc1c(C(=O)N2CCCCC2)sc2nc3c(cc12)CCCC3
  -0.09 | 0.64
O=C1SC(Nc2ccc(Br)cc2)C(=O)N1c1ccccc1 (stereo not drawn)
  -0.91 | 2.44
Cc1c(C(=O)N(C)c2ccc(Br)cc2)sc2nc3n(c(=O)c12)CCCC3
  . | 0.88
COc1cccc(C2CC(=O)Nc3c(-c4ccccc4)csc32)c1OC (stereo not drawn)
  . | 1.25
CC(C)c1nnc(-c2cc3sccc3s2)o1
  -1.09 | .
O=C(O)c1ccnc(-c2cc(C(=O)O)ccn2)c1
  -0.69 | .
CC(C)CCNC(=O)CCCN1C(=O)CSc2ncccc21
  1.36 | 0
Cc1cc(=O)[nH]c(SCc2cccc3ccccc23)n1
  -0.62 | 1.5
CCN1CCCC1CNS(=O)(=O)c1ccc2c(c1)C(C)(C)C(=O)N2C (stereo not drawn)
  . | 0
O=C(OCC#CC#CCOC(=O)c1cccnc1)c1cccnc1
  -1.39 | .
CC1CCCCC1NC(=O)CN(C)S(=O)(=O)c1cc2c(cc1Cl)NC(=O)CO2 (stereo not drawn)
  . | 2.08
NC(=O)C1CCN(C(=O)C2CCN(c3nnc(-n4cccc4)s3)CC2)CC1
  0.72 | 1.18
CCOC(=O)c1c(C)c(C(=O)NCC(C)C)c(C)n1CC
  -1.58 | .
O=C(CCC(=O)N1CC2CCCN2c2ccccc21)NCc1ccccn1 (stereo not drawn)
  . | 0.61
CN(C)CCN(C(=O)C1COc2ccccc2O1)c1nc2c(Cl)cccc2s1 (stereo not drawn)
  . | 1.19
Cc1ccc(-c2n[nH]c(=O)c3ccccc23)cc1S(=O)(=O)NC(C)(C)C
  -2.67 | 0.67
O=C(O)/C=C\C(=O)NCCc1ccc(Cl)cc1
  -2.8 | .
COc1ccc(OC)c(CNc2nc3ccc(C)cc3n3nnnc23)c1
  . | -0.92
Cn1c(=O)[nH]c(=O)c2c1nc(CN(Cc1ccccc1)Cc1ccccc1)n2CCN1CCOCC1
  -0.29 | -0.48
COc1ccc(-n2ccnc(NCCC3=CCCCC3)c2=O)cc1
  . | 0.97
NS(=O)(=O)c1ccc(CCNc2nc3ccccc3c3nc(-c4cccnc4)nn23)cc1
  6.57 | .
O=C(CSc1nccn(-c2ccc(F)cc2)c1=O)Nc1ccc(Cl)cc1
  . | -1.07
CCCC(C)NC(=O)c1ccc2c(c1)CCN2S(C)(=O)=O (stereo not drawn)
  -1.35 | 1.71
Cc1cccnc1-n1c(C)c(C)c2c1ncn1nc(Cc3ccccc3)nc21
  0.64 | 0.58
O=C1NCc2c1c1c3ccccc3[nH]c1c1[nH]c3ccccc3c21
  -1.1 | .
COc1ccc(C(Nc2ccccn2)c2c(C)[nH]c3ccccc23)cc1OC (stereo not drawn)
  -1.23 | .
COC(=O)C[C@H]1C(C)(C)C(=O)[C@@H]2CC3C4=CC(=O)O[C@@H](c5ccoc5)[C@]4(C)CCC3C1(C)C2=O (stereo partly drawn)
  . | 1.19
O=C(COCc1cc(-c2ccco2)on1)NCc1ccco1
  . | 0.98
NNC(=O)CC1NCCN(Cc2ccccc2)C1=O (stereo not drawn)
  -0.74 | .
Cc1onc(-c2ccccc2)c1C(=O)NC1CCSC1=O (stereo not drawn)
  -0.83 | -0.15
COc1ccc(C(=O)Nc2cc(C(=O)O)cc(C(=O)O)c2)cc1[N+](=O)[O-]
  -0.71 | .
COc1ccc(N2CCN(c3cc(C)nc4nncn34)CC2)cc1
  -1.13 | -0.48
O=C(c1ccco1)c1cn(CCOc2ccccc2F)c2ccccc12
  2.5 | 1
CCOc1cc(/C=c2\sc3nc4c(C)c(C)ccc4n3c2=O)cc(Cl)c1O
  -2.79 | .
Cc1c(NS(=O)(=O)c2ccc(Cl)cc2)c(-n2cnnc2)nn1C
  -1.02 | 0.53
Cc1cc(C)cc(NS(=O)(=O)c2cc3c4c(c2)CCC(=O)N4CCC3)c1
  . | 1.22
Cc1[nH]nc(NCc2cccnc2)c1[N+](=O)[O-]
  0.12 | -0.19
O=C(O)c1cc(NCc2ccc3c(c2)OCO3)ccc1N1CCOCC1
  -2.44 | 0.7
Cc1nc(NCCCO)c2sc3nc4c(cc3c2n1)COC(C)(C)C4
  . | -1.65
N#C/C(=C\c1ccc2c(c1)CCO2)C(=O)c1ccccc1
  1.07 | .
COc1ccccc1C(=O)CC1(O)C(=O)N(C(C)C)c2ccccc21 (stereo not drawn)
  -1.45 | -0.3
O=C(Cn1nc2cnc3ccccc3n2c1=O)Nc1ccc2c(c1)OCCO2
  -2.37 | 0.48
CC1CCN(S(=O)(=O)c2cn(CC(=O)NCc3cccs3)cn2)CC1
  . | -0.51
O=C(COc1ccccc1)Nc1ccc(OCc2cc(=O)n3ccsc3n2)cc1
  -1.67 | -0.3
CCOc1ccc(C2CC(=O)C3=C(C2)Nc2ccccc2NC3c2ccc3c(c2)OCO3)cc1OC (stereo not drawn)
  -2.18 | -0.2
NC(=O)c1cccnc1
  . | 1.3
CS(=O)(=O)NNC(=O)Cn1nnc(-c2ccccc2C(F)(F)F)n1
  -1.96 | .
CCOC(=O)CNC(=O)c1nnc2cc(C)nn2c1C
  -1.69 | .
CCCCc1ccc(S(=O)(=O)c2cnc(SCC(N)=O)[nH]c2=O)cc1
  . | -3.39
Cc1cc(C)c2[nH]c(CSc3nnc(-c4ccco4)n3C)cc(=O)c2c1
  . | -0.49
CCCCCOC(=O)C1=C(C)Nc2nnnn2C1c1ccc(Cl)cc1 (stereo not drawn)
  0.31 | -0.77
O=c1[nH]c(SCc2cccc(Br)c2)nc2c1CCC2
  -0.13 | 2.16
CCCN1CNc2nc3ccccc3n2C1
  -1.36 | 1.63
CCC(C)NC(=O)Cn1c(=O)oc2cc(S(=O)(=O)N3CCCC3)ccc21 (stereo not drawn)
  -1.7 | .
O=C(Nc1ccc(Cl)cc1)N1CCC(C(F)(F)F)CC1
  -2.08 | .
CN(c1ccc(F)cc1)S(=O)(=O)N1CCCC(C(=O)NC2CC2)C1 (stereo not drawn)
  . | 2.53
COc1cccc(NS(=O)(=O)c2c(C)nc3sccn3c2=O)c1
  -0.59 | 0.46
COc1ccc(-n2c(C)c(C(C)=O)c3cc(OC(C)=O)ccc32)cc1
  -0.57 | .

# Record cards, from the list above. Order of screens: CDC25B CDK2 inh	HIV TAR-Tat
# `COc1ccc(C(=O)Nc2cc(C(=O)O)cc(C(=O)O)c2)cc1[N+](=O)[O-]` in the list: -0.71	.
# `COc1ccccc1C(=O)CC1(O)C(=O)N(C(C)C)c2ccccc21` (stereo not drawn) in the list: -1.45	-0.3
# `Nc1c(C(=O)N2CCCCC2)sc2nc3c(cc12)CCCC3` in the list: -0.09	0.64
# `NNC(=O)CC1NCCN(Cc2ccccc2)C1=O` (stereo not drawn) in the list: -0.74	.

# Carrying on:
# Below each SMILES – CDC25B CDK2 inh | HIV TAR-Tat
O=C(Nc1ccc(F)cc1)N1CCN(c2nc3cc(F)ccc3n3cccc23)CC1
  . | 0.03
CC(=O)Oc1ccc2c(=O)c(-c3ccc4c(c3)OCCCO4)coc2c1
  -0.13 | .
CCCC(=O)N(c1ccc2oc(=O)sc2c1)S(=O)(=O)c1cc(OC)ccc1OC
  -2.23 | 0.11
CC(=O)c1sc(-c2ccc(Cl)cc2)cc1NC(=O)CSc1ccc(Cl)cc1
  -0.88 | .
O=C(Nc1cccc(F)c1)c1cn2c3c(ccc(Cl)c3c1=O)OCC2
  . | 1.65
O=C(Cn1cnc2c(nc3n2CCCCC3)c1=O)Nc1ccc(F)cc1F
  . | -0.52
Cc1nn(C)c(C)c1S(=O)(=O)N1CCc2c(c(C(=O)N3CCOCC3)nn2C)C1
  . | 0.51
Cc1nc(CNC(=O)c2oc3ccc(Br)cc3c2C)cs1
  -1.41 | -0.09
O=C(NCc1ccco1)c1cccn2c(-c3ccc(F)cc3)nnc12
  . | 1.2
CC1=C(C)CC(C(=O)NCc2csc3ccccc23)C(C(=O)O)C1 (stereo not drawn)
  1.05 | .
CC(C)CCNC(=O)CSc1nc(-c2ccccc2)nc2cc(=O)[nH]n12
  . | -1.01
CCOC(=O)C1=C(C)N=C2SCCC(=O)N2C1c1cccc(F)c1 (stereo not drawn)
  -1.06 | -0.34
Cn1c(=O)oc2cc(NS(=O)(=O)c3cnc[nH]3)ccc21
  . | 1.91
Cc1c(C(=O)C(N)=O)c2ccccc2n1C
  -0.56 | .
O=C(NCCc1c[nH]c2ccccc12)c1ccc(NC2=NC3CS(=O)(=O)CC3S2)cc1 (stereo not drawn)
  . | 2.7
COCCNC(=O)Nc1c[nH]c2c(OC)cccc2c1=O
  0.7 | 1.31
COc1cc(OC)c(NS(=O)(=O)c2ccc(-c3cc(C)[nH]n3)o2)cc1Cl
  . | 1.75
COC(=O)CC1(O)c2ccccc2C(=O)N1CCc1ccc(S(N)(=O)=O)cc1 (stereo not drawn)
  -1.3 | .
O=C(CCC1CCCC1)NCCS(=O)(=O)N1CCc2ccccc2C1
  . | 2.69
O=C(Cn1cc(C(=O)C2CC2)c2ccccc21)NCCc1c[nH]c2ccccc12
  -0.94 | -0.28

# Molecules listed so far that contain a cyano group, in the order listed:
# Below each SMILES – CDC25B CDK2 inh | HIV TAR-Tat
CC(C)(C)c1[nH]nc2c1C(c1cccs1)C(C#N)=C(N)O2 (stereo not drawn)
  -3.11 | .
N#C/C(=C\c1ccc2c(c1)CCO2)C(=O)c1ccccc1
  1.07 | .

# Later entries
# Below each SMILES – CDC25B CDK2 inh | HIV TAR-Tat
CC1=C(C(=O)OCCc2ccccc2)C(c2coc3ccccc3c2=O)C2=C(CC(C)(C)CC2=O)N1 (stereo not drawn)
  -1.39 | 1.28
Cc1cc(C)nc(SCCS(=O)Cc2ccc(Cl)cc2)n1 (stereo not drawn)
  -0.83 | .
CCOC(=O)C1CCN(c2csc3ccc(F)cc3c2=O)CC1
  . | 0.82
O=C(Nc1cnc2sc3ccccc3n2c1=O)c1ccc(Cl)cc1
  0.12 | 1.74
COc1cc(C2c3c(oc4ccccc4c3=O)C(=O)N2Cc2ccccc2)cc(Br)c1O (stereo not drawn)
  1.08 | -2.19
O=C(c1ccccc1F)N1CCN(Cc2cc(=O)n3nc(-c4ccccc4)sc3n2)CC1
  . | 0.76
CN1C(=O)C2(c3ccccc31)c1c(oc3ccccc3c1=O)C(=O)N2CC1CCCO1 (stereo not drawn)
  -1.43 | -0.32
COCCNC(=O)Nc1ccc2nc3c4ccccc4c4ccccc4c3nc2c1
  20.4* | .
CCOc1ccccc1NC(=O)O/N=C(\N)Cc1cccc2ccccc12
  -1.33 | .
CC1=C(C(=O)NCc2ccco2)C2(CCN(S(=O)(=O)c3cccs3)CC2)OC1=O
  . | 0.07
N#C/C(=N\Nc1ccc(OC(F)(F)F)cc1)c1ccccn1
  -0.82 | .
CCOC(=O)c1c(C)nc(NC(C)=O)nc1N
  -0.75 | .
O=C(Nc1ccc(OC(F)(F)F)cc1)Nc1csc2ccccc12
  -0.7 | .
Cc1ccc(S(=O)(=O)NCc2c(C)nn(C)c2C)cc1C
  . | -0.64
O=C(c1ccc(F)cc1)c1oc2ccccc2c1NC(=O)c1nn(-c2ccc(F)cc2)ccc1=O
  5.12 | -1.29
CCCc1nn2c(=O)cc(CSc3n[nH]c(N)n3)nc2s1
  . | 1.33
N#CC(C#N)=C/C=C(/Sc1ccc(F)c(Cl)c1)c1ccc(Cl)cc1
  -0.54 | .
